# Screening data: PubChem, Broad Institute
# UUG fidelity = modulators of yeast start codon fidelity, primary screen, whole organism, S. cerevisiae, single point, plate reader; actives 0.13% (n = 350,000); activity score, % at 18.7 µM; S. cerevisiae UUG-firefly luciferase reporter, luminescence/redox ratio; AID 602363, 2012;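 active = replicate mean at a twofold rise or more, about +100% in these data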;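 note: firefly luciferase made from a UUG start codon reports start codon fidelity; reporter light over untreated wells divided by growth signal over untreated wells; some hits fall short of that in this replicate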
# * hit, by the source's call.
cpd	UUG fidelity	mol
1	11	CCN1[C@@H]2Cn3c(ccc(-c4ccccc4OC)c3=O)[C@H]1[C@@H](C(=O)N1CCOCC1)[C@@H]2CO
2	10	COc1cccc(C(=O)Nc2ccc3c(c2)OC[C@@H](C)N(CCc2ccccc2)C[C@@H](C)[C@@H](OC)CN(C)C3=O)c1
3	2	C[C@@H]1CN([C@H](C)CO)C(=O)Cc2cc(NC(=O)Cn3cnnn3)ccc2O[C@H]1CN(C)Cc1ccc(-c2ccccc2)cc1
4	0	Cc1ccc(S(=O)(=O)Nc2ccc3c(c2)C(=O)N([C@H](C)CO)C[C@H](C)[C@@H](CN(C)Cc2ccc(Cl)c(Cl)c2)O3)cc1
5	-18	O=C(C[C@@H]1CC[C@@H]2[C@H](COC[C@H](O)CN2CC2CCOCC2)O1)N1CCOCC1
6	-11	O=C(c1cccnc1)N1CCCCN2[C@H](C1)[C@@H](c1ccc(C#Cc3ccccc3)cc1)[C@@H]2CO
7	-16	CC(C)NC(=O)N(C)C[C@@H]1Oc2c(NC(=O)c3ccncc3)cccc2C(=O)N([C@@H](C)CO)C[C@@H]1C
8	-5	COc1ccc(CN2[C@@H](CO)[C@@H]3c4ccccc4N(C(=O)CC(F)(F)F)C[C@@H]32)cc1
9	4	COc1cccc(S(=O)(=O)N2CCCCN3[C@H](C2)[C@H](c2ccc(C#CC4CC4)cc2)[C@@H]3CO)c1
10	4	O=C(C[C@@H]1CC[C@@H]2[C@H](COC[C@H](O)CN2S(=O)(=O)c2ccccc2Cl)O1)N1CCC(Cc2ccccc2)CC1
11	12	O=C(C[C@H]1CC[C@H]2[C@@H](COC[C@H](O)CN2Cc2ccc(F)cc2)O1)N1CCc2ccccc2C1
12	19	Cc1ccc(S(=O)(=O)Nc2ccc3c(c2)CC(=O)N([C@H](C)CO)C[C@H](C)[C@@H](CN(C)C)O3)cc1
13	-2	CCC(=O)N1[C@@H](CO)[C@@H](c2ccc(-c3ccc(F)cc3)cc2)[C@@H]1CNC(C)=O
14	0	CC(C)NC(=O)Nc1ccc2c(c1)CC(=O)N([C@H](C)CO)C[C@@H](C)[C@@H](CN(C)Cc1ccc(Cl)c(Cl)c1)O2
15	2	O=C(c1ccc(F)cc1)N1CCCCN2[C@H](C1)[C@H](c1ccc(C#CC3(O)CCCC3)cc1)[C@@H]2CO
16	-5	COc1ccccc1S(=O)(=O)N1CC[C@H]2[C@@H](CO)N(C)c3ccc(-c4ccc(C#N)cc4)cc3[C@H]21
17	18	O=C(c1cccc(F)c1)N1CCCCN2[C@H](CO)[C@@H](c3ccc(-c4cncnc4)cc3)[C@@H]2C1
18	18	C[C@@H]1CN([C@@H](C)CO)C(=O)c2cc(NC(=O)c3ccncc3)ccc2O[C@@H]1CN(C)Cc1ccc(-c2ccccc2)cc1
19	-18	N#Cc1cccc(-c2ccc3c(c2)[C@@H]2[C@@H](CCN2S(=O)(=O)c2ccccc2F)[C@@H](CO)N3)c1
20	16	CCOC(=O)N(C)C[C@H]1OCc2ccccc2-c2c(n(C)c3ccccc23)C(=O)N([C@@H](C)CO)C[C@@H]1C
21	-4	C[C@@H]1CN([C@H](C)CO)C(=O)c2cccc(NC(=O)Nc3cccc4ccccc34)c2O[C@@H]1CN(C)Cc1ccc(Cl)c(Cl)c1
22	-11	COc1ccc(CN(C)C[C@H]2OCc3cn(nn3)CCCC(=O)N([C@H](C)CO)C[C@@H]2C)cc1
23	45	C[C@H]1CN([C@@H](C)CO)C(=O)c2cccc(NC(=O)NC3CCCCC3)c2O[C@@H]1CN(C)C(=O)Nc1ccccc1
24	-10	CC(C)NC(=O)N(C)C[C@@H]1Oc2ccc(NS(=O)(=O)c3ccc(Cl)cc3)cc2CC(=O)N([C@H](C)CO)C[C@@H]1C
25	-5	O=C(C[C@H]1CC[C@H]2[C@@H](COC[C@@H](O)CN2Cc2ccncc2)O1)NCC1CC1
26	-19	COc1cccc(-c2ccc3c(c2)[C@H]2[C@H](CCN2S(=O)(=O)c2ccccc2F)[C@H](CO)N3C)c1
27	-2	N#Cc1cccc(-c2ccc([C@@H]3[C@@H](CO)N4CCCCN(C(=O)Nc5ccccc5)C[C@@H]34)cc2)c1
28	8	CC(=O)N(C)C[C@H]1[C@@H](c2ccc(-c3ccccc3F)cc2)[C@@H](CO)N1C(C)=O
29	-14	Cc1cccc(-c2ccc([C@H]3[C@H](CO)N4CCCCN(Cc5cncnc5)C[C@@H]34)cc2)c1
30	-13	CN1c2ccc(C3=CCCCC3)cc2[C@@H]2[C@@H](CCN2C(=O)c2ccc3c(c2)OCO3)[C@@H]1CO
31	-23	O=C(C[C@H]1CC[C@H]2[C@@H](COC[C@@H](O)CN2C(=O)Nc2ccc(Cl)c(Cl)c2)O1)NCc1ccc(Cl)c(Cl)c1
32	-4	C[C@@H]1CN([C@H](C)CO)C(=O)c2cccc(NS(C)(=O)=O)c2O[C@H]1CN(C)C(=O)NC1CCCCC1
33	-18	Cc1noc(C)c1NC(=O)N(C)C[C@H]1Oc2ccc(NS(=O)(=O)c3ccc(F)cc3)cc2C(=O)N([C@H](C)CO)C[C@H]1C
34	7	CCCNC(=O)N1C[C@@H](C)[C@H](OC)CN(C)C(=O)c2ccc(NC(=O)CCC)cc2OC[C@@H]1C
35	-1	Cc1ccccc1-c1ccc([C@@H]2[C@H](CO)N3CCCCN(S(=O)(=O)c4ccc(F)cc4)C[C@@H]23)cc1
36	39	CO[C@H]1CN(C)C(=O)c2ccc(NC(=O)NC(C)C)cc2OC[C@@H](C)N(Cc2ccc(-c3ccccn3)cc2)C[C@H]1C
37	3	Cc1cccc(-c2ccc([C@@H]3[C@@H](CO)N4CCCCN(C(=O)c5cccnc5)C[C@@H]34)cc2)c1
38	-16	OC[C@H]1[C@@H](c2ccc(-c3cccc(F)c3)cc2)[C@H]2CN(Cc3cncnc3)CCCCN21
39	-9	COCC(=O)N1[C@H](CN(C)C(=O)c2ccncc2)[C@@H](c2ccccc2)[C@@H]1CO
40	-11	C[C@H]1CN([C@@H](C)CO)C(=O)c2cc(NS(=O)(=O)c3cn(C)cn3)ccc2O[C@H]1CN(C)Cc1ccc(Cl)c(Cl)c1
41	0	Cc1noc(C)c1NC(=O)N(C)C[C@@H]1Oc2c(NS(=O)(=O)c3cccs3)cccc2C(=O)N([C@H](C)CO)C[C@@H]1C
42	-12	C[C@@H]1CN([C@H](C)CO)C(=O)Cc2cc(NC(=O)NC3CCCCC3)ccc2O[C@H]1CN(C)S(=O)(=O)c1ccccc1
43	8	CO[C@@H]1CN(C)C(=O)c2cc(NC(=O)c3cc(C)on3)ccc2OC[C@@H](C)N(C(=O)C2CC2)C[C@@H]1C
44	-15	O=C(c1cccc(F)c1)N1CC[C@@H]2[C@H](CO)Nc3ccc(C#Cc4ccc(F)cc4)cc3[C@@H]21
45	11	CO[C@H]1CN(C)C(=O)c2ccc(NC(C)=O)cc2OC[C@H](C)N(C(=O)C2CC2)C[C@H]1C
46	-11	O=C(C[C@H]1CC[C@H]2[C@@H](COC[C@@H](O)CN2Cc2cccc(Cl)c2)O1)N1CCOCC1
47	-4	CC(C)NC(=O)Nc1cccc2c1O[C@@H](CN(C)Cc1ccc(C(=O)O)cc1)[C@@H](C)CN([C@@H](C)CO)C2=O
48	7	C[C@@H](O)C#Cc1ccc([C@@H]2[C@@H](CO)N3CCCCN(C(=O)c4ccc(F)cc4)C[C@H]23)cc1
49	0	CN(C)CC#Cc1ccc([C@@H]2[C@@H](CO)N3CCCCN(C(=O)c4ccc5c(c4)OCO5)C[C@@H]23)cc1
50	-5	Cc1ccc(S(=O)(=O)Nc2ccc3c(c2)C(=O)N([C@@H](C)CO)C[C@@H](C)[C@H](CN(C)C(=O)NC2CCCCC2)O3)cc1

# (listing goes on)
cpd	UUG fidelity	mol
51	13	C[C@@H]1CN([C@H](C)CO)C(=O)c2cc(NC(=O)Cn3cnnn3)ccc2O[C@H]1CN(C)Cc1ccc(Oc2ccccc2)cc1
52	10	Cc1noc(C)c1NC(=O)Nc1ccc2c(c1)CC(=O)N([C@@H](C)CO)C[C@@H](C)[C@@H](CN(C)Cc1ccc(Cl)c(Cl)c1)O2
53	4	CN1c2ccc(C3=CCCCC3)cc2[C@H]2[C@H](CCN2C(=O)Cc2ccccn2)[C@@H]1CO
54	-7	CCCNC(=O)Nc1ccc2c(c1)C(=O)N(C)[C@@H]1CC[C@H](CC(=O)OC)O[C@@H]1CO2
55	14	C[C@@H]1CN([C@H](C)CO)C(=O)Cc2cc(NC(=O)C3CCCCC3)ccc2O[C@@H]1CN(C)S(=O)(=O)c1ccccc1
56	-7	COc1ccccc1CN1[C@H](CO)[C@H]2c3ccccc3N(C(=O)C3CCOCC3)C[C@H]21
57	-5	O=S(=O)(c1ccc(F)cc1)N1CCCCN2[C@H](CO)[C@@H](c3ccc(-c4ccccc4F)cc3)[C@H]2C1
58	5	CO[C@@H]1CN(C)C(=O)c2ccc(NC(=O)c3ccc(F)cc3)cc2OC[C@@H](C)N(C(C)=O)C[C@@H]1C
59	26	C[C@H](CO)N1C[C@H](C)[C@@H](CN(C)S(=O)(=O)c2ccc(Cl)cc2)Oc2ccc(NC(=O)CCCN(C)C)cc2CC1=O
60	78	CCCC(=O)N1C[C@H]2[C@@H](c3ccccc31)[C@H](CO)N2C(=O)Nc1ccccc1
61	-2	CN(C)CCCNC(=O)C[C@H]1CC[C@@H]2[C@H](COC[C@@H](O)CN2Cc2cccc(C(F)(F)F)c2)O1
62	1	C[C@@H]1CN([C@H](C)CO)C(=O)c2cc(NS(=O)(=O)c3cn(C)cn3)ccc2O[C@H]1CN(C)C(=O)NC1CCCCC1
63	-7	O=C(Nc1cc(F)ccc1F)N1CCCCN2[C@H](C1)[C@@H](c1ccc(-c3ccncc3)cc1)[C@@H]2CO
64	9	COc1ccc(NC(=O)N2CCCCN3[C@H](C2)[C@H](c2ccc(C#Cc4ccccn4)cc2)[C@@H]3CO)cc1
65	-11	C[C@@H]1CN([C@@H](C)CO)C(=O)c2cccc(N(C)C)c2O[C@@H]1CN(C)C(=O)Nc1ccccc1
66	6	C[C@@H]1CN([C@@H](C)CO)C(=O)c2c(c3ccccc3n2C)-c2ccccc2CO[C@@H]1CN(C)C(=O)Nc1cccc(F)c1
67	-5	CO[C@@H]1CN(C)C(=O)c2cc(NC(=O)NC3CCCCC3)ccc2OC[C@H](C)N(CC2CC2)C[C@H]1C
68	-10	C[C@H]1CN([C@@H](C)CO)C(=O)c2cccc(NS(=O)(=O)c3cn(C)cn3)c2O[C@H]1CN(C)S(=O)(=O)c1ccc(F)cc1
69	12	C[C@@H]1CN([C@@H](C)CO)C(=O)Cc2cc(NC(=O)NC3CCCCC3)ccc2O[C@H]1CN(C)S(=O)(=O)c1ccc(F)cc1
70	-2	CC=Cc1ccc2n(c1=O)C[C@@H]1[C@@H](CO)[C@H](C(=O)NCC)N(Cc3cocn3)[C@H]21 (mixture of isomers)
71	-4	CCN1[C@@H]2Cn3c(ccc(-c4ccccc4)c3=O)[C@H]1[C@@H](C(=O)Nc1ccccc1)[C@@H]2CO
72	3	COCC#Cc1ccc([C@H]2[C@H](CO)N3CCCCN(S(=O)(=O)c4ccccc4C)C[C@@H]23)cc1
73	-13	COCC(=O)N1[C@H](CO)[C@@H]2c3ccccc3NC[C@@H]21
74	0	CO[C@@H]1CN(C)C(=O)c2cc(NC(=O)c3nc4ccccc4s3)ccc2OC[C@@H](C)N(Cc2cccnc2)C[C@H]1C
75	-3	CCS(=O)(=O)Nc1ccc2c(c1)C(=O)N(C)[C@H]1CC[C@H](CC(=O)NCc3ccc(OC)cc3)O[C@@H]1CO2
76	10	C[C@@H]1CN([C@H](C)CO)C(=O)c2cccc(NC(=O)c3ccc(-c4nccs4)cc3)c2O[C@H]1CN(C)C(=O)Nc1ccc2c(c1)OCO2
77	-3	Cc1ccccc1S(=O)(=O)N1CC[C@@H]2[C@H]1c1cc(-c3cccc(F)c3)ccc1N[C@@H]2CO
78	1	COCC(=O)Nc1ccc2c(c1)C(=O)N(C)C[C@@H](OC)[C@@H](C)CN(C(=O)Cc1ccccn1)[C@@H](C)CO2

# Random excerpt: 4 compounds from above, in no set order.
cpd	UUG fidelity	mol
68	-10	C[C@H]1CN([C@@H](C)CO)C(=O)c2cccc(NS(=O)(=O)c3cn(C)cn3)c2O[C@H]1CN(C)S(=O)(=O)c1ccc(F)cc1
25	-5	O=C(C[C@H]1CC[C@H]2[C@@H](COC[C@@H](O)CN2Cc2ccncc2)O1)NCC1CC1
34	7	CCCNC(=O)N1C[C@@H](C)[C@H](OC)CN(C)C(=O)c2ccc(NC(=O)CCC)cc2OC[C@@H]1C
57	-5	O=S(=O)(c1ccc(F)cc1)N1CCCCN2[C@H](CO)[C@@H](c3ccc(-c4ccccc4F)cc3)[C@H]2C1

# Reformatted: 7 of the compounds above
nr	SMILES	UUG fidelity
68	C[C@H]1CN([C@@H](C)CO)C(=O)c2cccc(NS(=O)(=O)c3cn(C)cn3)c2O[C@H]1CN(C)S(=O)(=O)c1ccc(F)cc1	-10
69	C[C@@H]1CN([C@@H](C)CO)C(=O)Cc2cc(NC(=O)NC3CCCCC3)ccc2O[C@H]1CN(C)S(=O)(=O)c1ccc(F)cc1	12
70	CC=Cc1ccc2n(c1=O)C[C@@H]1[C@@H](CO)[C@H](C(=O)NCC)N(Cc3cocn3)[C@H]21 (mixture of isomers)	-2
71	CCN1[C@@H]2Cn3c(ccc(-c4ccccc4)c3=O)[C@H]1[C@@H](C(=O)Nc1ccccc1)[C@@H]2CO	-4
72	COCC#Cc1ccc([C@H]2[C@H](CO)N3CCCCN(S(=O)(=O)c4ccccc4C)C[C@@H]23)cc1	3
73	COCC(=O)N1[C@H](CO)[C@@H]2c3ccccc3NC[C@@H]21	-13
74	CO[C@@H]1CN(C)C(=O)c2cc(NC(=O)c3nc4ccccc4s3)ccc2OC[C@@H](C)N(Cc2cccnc2)C[C@H]1C	0

# Only part of the results is shown; rates above refer to the full screens.
